# VDR inhibitor: inhibitors of human vitamin D receptor; VDR-SRC2-3 peptide fluorescence polarization, 2 h; Potency, µM, for inactives: max response, negative = inhibition, actives largely listed as inhibitors; 0.93% of 400,000 active; AID 504847; active = well fitted inhibition curve with a large enough effect; inconclusive = small, poorly fitted or top-dose-only effect, or another doubt; inactive = no such curve, though single readings can be large or run the other way; note: series mostly up to about 120 µM
# Target sequence (P11473 whole entry, looked up): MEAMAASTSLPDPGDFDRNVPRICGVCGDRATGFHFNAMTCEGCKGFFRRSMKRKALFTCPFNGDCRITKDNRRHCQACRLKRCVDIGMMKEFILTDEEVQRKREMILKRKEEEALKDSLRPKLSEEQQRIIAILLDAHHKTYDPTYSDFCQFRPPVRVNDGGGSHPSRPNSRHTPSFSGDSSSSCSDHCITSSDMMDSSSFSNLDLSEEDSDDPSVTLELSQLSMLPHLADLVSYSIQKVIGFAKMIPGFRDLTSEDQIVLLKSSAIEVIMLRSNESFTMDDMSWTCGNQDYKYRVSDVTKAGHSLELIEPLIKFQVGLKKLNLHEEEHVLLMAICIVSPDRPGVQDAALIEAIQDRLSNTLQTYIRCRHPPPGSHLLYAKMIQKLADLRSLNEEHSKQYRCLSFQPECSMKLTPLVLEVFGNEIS
#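 VDR–SRC2-3 interaction, FP format. Cmpds 23 nl via pintool, brief spin, 2 h ambient incubation.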
# An asterisk follows results filed as active; u = inconclusive; & = joins results of further samples; [ ] = dose if it differs, or a comment. % is set by controls: 0 for no effect and ±100 for the full control effect; potency is the fitted concentration of half-maximal effect.
VDR inhibitor | SMILES
0% | CCc1ccc(Nc2ncnc3nc[nH]c23)cc1
-7%&-2% | CCCc1ncc(C[n+]2ccccc2C)c(N)n1
1% | COc1cc(C(C)=O)ccc1Oc1ncnc2c1cnn2-c1cccc(Cl)c1
-8% | Cn1c(=O)[nH]c(=O)c2c1nc(SCC(O)CCl)n2Cc1ccccc1 (centres undefined)
-11% | Cc1ccc(S(=O)(=O)N2CCOCC2)cc1NC(=O)CNCc1ccccc1Cl
-17% | Cc1c(NC(=O)Nc2cccs2)cccc1[N+](=O)[O-]
-15% | C/C=C/C=C(/NC(=O)c1ccccc1)C(=O)Nc1ccccc1
-6% | Cc1cc(O)c2c(c1)CC1C3CCC4CC(=O)CCC4(C)C3CC(=O)C21C (centres undefined)
-2% | Cn1c(CCN2CCOCC2)nc2cc(NC(=O)COc3ccc(Cl)cc3)ccc21
0% | CCCc1cc(=O)[nH]c(/N=C(/NC(=O)C(C)N2C(=O)c3ccccc3C2=O)Nc2ccccc2)n1 (centres undefined)
-2% | COc1ccc(NC(=O)C(=O)N2N=C3CCCCC3C2(O)C(F)(F)F)cc1 (centres undefined)
11% | CC[C@H](C)[C@H](NC(N)=O)C(=O)Nc1ccc(NC(C)=O)cc1
6% | CCOC(=O)C1=C(C)NC(C)=C(C(=O)OCC)C1C(=O)OCC(=O)N1CCc2ccccc21
-10% | CN(c1ccc(OCC(=O)OCC(=O)Nc2cccc([N+](=O)[O-])c2)cc1)S(=O)(=O)c1ccc(F)cc1
8% | C#CCOCCOCCOCCNc1nc(N2CCN(C(=O)C([C@@H](C)CC)n3cc(C(N)Cc4ccc(O)cc4)nn3)CC2)nc(N2CCN(C(=O)[C@H](CCC(=O)O)n3cc(C(N)[C@H](C)CC)nn3)CC2)n1 (some centres undefined)

# Arranged by length of the SMILES (descending): part of the list above
VDR inhibitor | SMILES
-10% | CN(c1ccc(OCC(=O)OCC(=O)Nc2cccc([N+](=O)[O-])c2)cc1)S(=O)(=O)c1ccc(F)cc1
11% | CC[C@H](C)[C@H](NC(N)=O)C(=O)Nc1ccc(NC(C)=O)cc1
-17% | Cc1c(NC(=O)Nc2cccs2)cccc1[N+](=O)[O-]
-7%&-2% | CCCc1ncc(C[n+]2ccccc2C)c(N)n1

# (listing goes on)
VDR inhibitor | SMILES
-15% | Cc1cc(C(=O)COC(=O)c2cccn2C)c(C)n1Cc1ccco1
0% | COc1ccc(C(=O)Nc2ccc(S(=O)(=O)N3CCCCC3C)cc2)c(OC)c1OC (centres undefined)
-7% | O=c1[nH]cnc2c1ncn2-c1ccc(N(CCO)CCO)cc1
-4% | CC1=C(C#N)C(c2cccnc2)C2=C(N1)c1ccccc1C2=O (centres undefined)
-14% | COc1ccc(-c2nc3n(n2)C(=O)CC(c2ccc(Cl)cc2)S3)cc1 (centres undefined)
-12% | O=C(Nc1ccc(F)cc1F)c1ccc(COc2c(F)c(F)cc(F)c2F)o1
-7% | COc1ccc(C(NC(=O)c2c(F)c(F)c(F)c(F)c2F)c2ccccc2)cc1 (centres undefined)
9% | COc1ccc(C(=O)OCC(=O)Nc2ccc([N+](=O)[O-])cc2OC)c(O)c1
-9% | O=C(NCc1cccnc1)c1ccc(CN2CCc3ccccc3C2)cc1
11% | COc1cc(/C=N/n2c(C3CCCCC3)n[nH]c2=S)cc(Br)c1O
23% | COC(=O)c1c(C)nc2c(c(SC)nn2-c2ccccc2)c1N
0% | Cc1ccccc1N(C(=O)c1ccccn1)C(C(=O)NCc1ccccc1)c1cccnc1 (centres undefined)
-20% | NCCCC[C@@H]1NC(=O)[C@H](CCC(=O)O)NC(=O)c2cc([N+](=O)[O-])cc(I)c2NCC[C@@H](C(N)=O)NC1=O
17% | O=C(NCCN1CCOCC1)c1ccc(CS(=O)(=O)c2ccc(Br)cc2)o1
-17% | CC1(C)Cc2cccc(OCC(=O)OCC(=O)NCc3ccccc3)c2O1
-6% | Cc1ccc2cccc(S(=O)(=O)n3nc(C)cc3C)c2n1
9% | CCN(CC(=O)Nc1ccc2c(c1)OCCO2)Cc1cc(=O)oc2cc(C)c(C)cc12
-3% | COc1cc(NC(=O)COC(=O)/C=C/c2ccccc2Cl)cc(OC)c1
9% | O=C(NCc1ccc(F)cc1)C(c1ccc(Cl)cc1)N(C(=O)c1csnn1)C1CC1 (centres undefined)
3% | CC(C)NC(=O)CC(=O)NN=C1CCCCC1
5% | COc1ccc(OC2C(=O)N(c3cc(C)ccc3C)C2c2ccc(OC)c(OC)c2)cc1 (centres undefined)
-2% | COC(=O)C1CCC(=O)N1C(c1ccc(OC)cc1)c1cc(OC)c(OC)c(OC)c1 (centres undefined)
u | O=C(O)c1cccc(Nc2ccncc2[N+](=O)[O-])c1
-10% | O=C(CN(CC1CCCO1)C(=O)CNS(=O)(=O)c1ccc(F)cc1)NCC1CCCO1 (centres undefined)
-13% | CN(CCOC(=O)c1cccc(Br)c1)C(C)(C)C
8% | CCOC(=O)c1[nH]c2ccccc2c1N=CN(CC)CC
3% | CCOc1ccc(N/C(N)=N/c2nc(CSc3nnnn3-c3ccccc3)cc(=O)[nH]2)cc1
7% | COc1ccc(/C=C2\SC(=O)N(CC(=O)NNC(=O)c3ccccc3O)C2=O)cc1
9% | COc1ncnc2c1oc1nc(C)c3c(c12)CC(C)(C)OC3
0% | O=C(O)c1ccc(S(=O)(=O)c2ccccc2C(=O)O)c([N+](=O)[O-])c1
-9% | O=C(NC(=S)NCCN1CCOCC1)c1ccc(Cl)cc1
u | O=C(Nc1nnc(SCc2ccc(Cl)cc2)s1)c1ccco1
4% | Cc1nc(CN(C)C(=O)CC2C(=O)NCCN2Cc2ccc(-c3ccccc3)cc2)cs1 (centres undefined)
-26% | Cc1cc(C(=O)N2CCCC2C(=O)O)c(C)o1 (centres undefined)
5%&-6% | CC1(O)CCC(C(C)(C)O)CC1 (centres undefined)
-8% | COc1ccccc1-c1cc(C(=O)NCc2ccccc2)c2c(-c3ccc(C)cc3)[nH]nc2n1
5% | O=[N+]([O-])c1ccc(Cl)c(/C=N/Nc2nc(N3CCOCC3)nc(N3CCOCC3)n2)c1
5% | CC(NC(=O)CN(C)Cc1cccc(F)c1)c1ccccc1 (centres undefined)
-20% | Cc1ccccc1Cn1cc(S(=O)(=O)c2ccc(F)cc2)c(=O)c2cc3c(cc21)OCO3
-10% | O=[N+]([O-])c1ccccc1CN1CCN(c2ncccn2)CC1
18% | COc1ccc(NC(=O)Cn2c(SCc3ccc(C)cc3)nc3cccnc32)cc1OC
-15% | Cc1ccc(-c2noc(CSc3ccccc3)n2)cc1
u | CCCN(CC(=O)Nc1ccccc1OC)C(=O)C1=COCCO1
-16% | N#Cc1c(-c2ccc(C(F)(F)F)cc2)cc(-c2ccccc2)[nH]c1=S
-3% | Cc1cccc(-n2ncc3c2CCCC3NC(=O)CCCN2CCCCC2=O)c1C (centres undefined)
13% | Cc1ccn2c(=O)cc(COc3ccc(NC(=O)COc4ccc(Cl)cc4)cc3)nc2c1
-16% | Cc1ccc(-n2cc(CN3CCNC(=O)CC3)c(-c3ccc(F)cc3)n2)cc1
-3% | CNC1CCc2cc(OC)c(OC)c(OC)c2-c2ccc(OC)c(=O)cc21 (centres undefined)
-7% | O=C(Nc1ccncc1)C1CCN(S(=O)(=O)c2c(Cl)cccc2Cl)CC1
-3% | COc1cccc(C(CNc2ccc(S(=O)(=O)N3CCN(C)CC3)cc2[N+](=O)[O-])N(C)C)c1 (centres undefined)
1% | CCCCNC(=O)c1ccc2c(c1)N=C(CC)c1ccccc1S2
-8% | CC(C)C(=O)Nc1ccccc1-c1nc2ccccc2[nH]c1=O
-2% | CCC(CC)C(=O)Nc1nnc(SCC(=O)NC(C)(C)C)s1
35%[activator] | Cc1cc(=O)oc(C)c1C(=O)OCC(=O)c1ccc(Br)cc1
-5%&-3% | O=S(=O)(c1ccccc1)N1CCN(c2ccccc2)CC1
-8% | O=C(COC(=O)[C@H](Cc1ccccc1)NC(=O)c1ccco1)NC(c1ccccc1)c1ccccc1
14% | C=CCc1cccc(/C=N/NC(=O)CCC(=O)Nc2ccc(F)cc2)c1O
-10% | Cc1cc([N+](=O)[O-])nn1CC(=O)Nc1cc(F)ccc1F
-2% | c1ccc(SCCOCCN2CCOCC2)cc1
11% | COc1ccc(/C=C2\N=C(C(C)(C)C)OC2=O)c(OC)c1

# Further results follow:
VDR inhibitor | SMILES
-9% | CCCCN1CCc2c([nH]c3ccc(C)cc23)C1=O
4% | COC(=O)C1Cc2c([nH]c3ccccc23)C2(CCN(Cc3ccccc3)CC2)N1 (centres undefined)
0% | Cc1ccc2nc(C3CCCN3Cc3nc(CCC(C)C)no3)[nH]c2c1 (centres undefined)
-2% | C[C@H]1CCC(=O)N(CCSc2ccc(Br)cc2)CC1
-15% | O=C(CN1CCc2ccccc21)NN1CC(=O)N(c2ccccc2)CC1=O
13% | CCCCn1c(N)c(N(CC(C)C)C(=O)c2cccc(S(=O)(=O)N3CCCCC3)c2)c(=O)[nH]c1=O
2% | COc1ccc(NC(=O)CCCn2c(=O)c3cccn3c3ccccc32)c(OC)c1
8% | CCOc1ccccc1Nc1nnc(SCC(=O)Nc2ccc3[nH]c(=O)[nH]c3c2)s1
-6% | Cc1cc(C(=O)NCC(=O)OCC(=O)Nc2ccc(OC(F)F)cc2)ccc1[N+](=O)[O-]
4% | O=c1c2ccccc2oc2cc(NCCCn3ccnc3)ccc12
10% | O=C(Oc1ccccc1)N1CCC2(CC1)CCN(c1cccc(-c3ccccc3)c1)CC2
-17% | O=c1oc2ccccc2c(N2CCC(c3ccccc3)CC2)c1[N+](=O)[O-]
0% | COc1ccc(CCNC(=O)CCCc2ccccc2)cc1OC
79µM* | CN(C)CC1CCC/C(=C\c2ccc(OC(=O)/C=C/c3ccccc3)cc2)C1=O (centres undefined)
-7% | CCc1cc(=O)oc2c(C)c(OCC(=O)N3CCCc4ccccc43)ccc12
-13% | c1ccc(-c2ccccc2OCCOCCN2CCCCC2)cc1
14% | COc1cc(/C=N/NC(=O)c2nonc2N)cc(OC)c1OC
-23% | Cc1cc(Cl)ccc1OCC(=O)N/N=C1\CC2C=CCC12 (centres undefined)
4% | CCCN(CCC)CCCNC(=O)c1cnn(-c2ccc(F)cc2)c1-n1cccc1
-5% | COc1ccc(C(=O)NCC(=O)N/N=C(C)\C=C\c2ccccc2)cc1OC
1% | O=C(COc1ccc2c(-c3ccccc3)cc(=O)oc2c1)NCCCN1CCOCC1
-23% | CCCc1nc(SCC(=O)c2ccccc2)c2c(=O)n(C)c(=O)n(C)c2n1
2% | COc1ccc(C(=O)O)cc1S(=O)(=O)N(CCc1ccccc1)Cc1ccccc1
u | O=C1NC(=O)C(c2cn(-c3ccccc3)nc2-c2ccc(F)cc2)N1 (centres undefined)
-15% | CCOC(=O)[C@H]1[C@H]2COc3ccc(OC)cc3[C@@H]2N2C(=O)CN(CCc3c[nH]c4ccccc34)C(=O)[C@@]12C
9% | CCC(=O)Nc1cccc(NC(=O)CSc2nc3c(c(=O)n(C)c(=O)n3C)n2C)c1
-5% | CCOC(=O)c1c(NCC(C)C)c2ccccc2[nH]c1=O
8% | Cc1ccc(S(=O)(=O)N2CCOC2CNC(=O)C(=O)NCCN2CCOCC2)cc1 (centres undefined)
16% | CCOC(=O)c1[nH]c(C)c(CCC(=O)NCc2ccc(N(C)C)cc2)c1C
-3% | COc1cccc(NC(=O)C2CCN(S(=O)(=O)c3ccc4[nH]c5c(c4c3)CCCCC5)CC2)c1
1% | CC(C)c1ccccc1NC(=O)c1ccccc1NC(=O)C1CCCCC1
-23% | CCOC(=O)C1CCC/C1=N\NC(=O)CN(c1cc(OC)ccc1OC)S(=O)(=O)c1ccccc1 (centres undefined)
7% | C[C@H](NC(=O)OCc1ccccc1)C(=O)NNC(=O)[C@H](C)NC(=O)OCc1ccccc1
18% | Cc1ccc(Cn2c(=O)c3c(nc4n3CCCN4Cc3ccccc3)n(C)c2=O)cc1
-5% | COCCCNC(=O)c1cccs1
2% | CCOC(=O)C1(Cc2ccccc2)CCCN(C(=O)c2cn[nH]c2)C1 (centres undefined)
-7% | CCC(C)c1ccccc1OCCCNC1CCCC1 (centres undefined)
2% | O=C(Nc1ccccc1)N1CCCC2(CCN(C(=O)c3ccco3)CC2)C1
18% | O=C(N/C(=C/c1ccco1)C(=O)N1CCCCC1)c1cccs1
26% | O=C(C1CCN(S(=O)(=O)Cc2ccccc2)CC1)N1CCN(c2ccc(F)cc2)CC1
u | O=C1[C@H]2CCC=C[C@H]2[C@H](c2cccc(Br)c2)N1Cc1ccccc1
9% | Cc1ccccc1C(=O)N1CCN(c2ccc(NC(=O)CSc3ccc(Cl)cc3)cc2)CC1

# Compounds listed so far with an aryl thioether with sulfur outside any ring, in the order listed:
VDR inhibitor | SMILES
-8% | Cn1c(=O)[nH]c(=O)c2c1nc(SCC(O)CCl)n2Cc1ccccc1 (centres undefined)
23% | COC(=O)c1c(C)nc2c(c(SC)nn2-c2ccccc2)c1N
3% | CCOc1ccc(N/C(N)=N/c2nc(CSc3nnnn3-c3ccccc3)cc(=O)[nH]2)cc1
u | O=C(Nc1nnc(SCc2ccc(Cl)cc2)s1)c1ccco1
18% | COc1ccc(NC(=O)Cn2c(SCc3ccc(C)cc3)nc3cccnc32)cc1OC
-15% | Cc1ccc(-c2noc(CSc3ccccc3)n2)cc1
-2% | CCC(CC)C(=O)Nc1nnc(SCC(=O)NC(C)(C)C)s1
-2% | c1ccc(SCCOCCN2CCOCC2)cc1
-2% | C[C@H]1CCC(=O)N(CCSc2ccc(Br)cc2)CC1
8% | CCOc1ccccc1Nc1nnc(SCC(=O)Nc2ccc3[nH]c(=O)[nH]c3c2)s1
-23% | CCCc1nc(SCC(=O)c2ccccc2)c2c(=O)n(C)c(=O)n(C)c2n1
9% | CCC(=O)Nc1cccc(NC(=O)CSc2nc3c(c(=O)n(C)c(=O)n3C)n2C)c1
9% | Cc1ccccc1C(=O)N1CCN(c2ccc(NC(=O)CSc3ccc(Cl)cc3)cc2)CC1

# High-throughput results from PubChem.

# Not all compounds are listed; the hit share may differ from the screen's.
